Assay outcomes deposited in PubChem by National Center for Advancing Translational Sciences (NCATS).
GCN5L2 inh – inhibitors of human GCN5L2 histone acetyltransferase; Q92830; GCN5L2 HAT assay, ThioGlo1 CoA-SH fluorescence; 390,000 tested, 0.21% active; Potency, µM (highest dose often 58.9 µM), without a hit: at the highest dose activity change, negative = inhibition, usual class: inhibitors
Target sequence (Q92830 whole entry, looked up): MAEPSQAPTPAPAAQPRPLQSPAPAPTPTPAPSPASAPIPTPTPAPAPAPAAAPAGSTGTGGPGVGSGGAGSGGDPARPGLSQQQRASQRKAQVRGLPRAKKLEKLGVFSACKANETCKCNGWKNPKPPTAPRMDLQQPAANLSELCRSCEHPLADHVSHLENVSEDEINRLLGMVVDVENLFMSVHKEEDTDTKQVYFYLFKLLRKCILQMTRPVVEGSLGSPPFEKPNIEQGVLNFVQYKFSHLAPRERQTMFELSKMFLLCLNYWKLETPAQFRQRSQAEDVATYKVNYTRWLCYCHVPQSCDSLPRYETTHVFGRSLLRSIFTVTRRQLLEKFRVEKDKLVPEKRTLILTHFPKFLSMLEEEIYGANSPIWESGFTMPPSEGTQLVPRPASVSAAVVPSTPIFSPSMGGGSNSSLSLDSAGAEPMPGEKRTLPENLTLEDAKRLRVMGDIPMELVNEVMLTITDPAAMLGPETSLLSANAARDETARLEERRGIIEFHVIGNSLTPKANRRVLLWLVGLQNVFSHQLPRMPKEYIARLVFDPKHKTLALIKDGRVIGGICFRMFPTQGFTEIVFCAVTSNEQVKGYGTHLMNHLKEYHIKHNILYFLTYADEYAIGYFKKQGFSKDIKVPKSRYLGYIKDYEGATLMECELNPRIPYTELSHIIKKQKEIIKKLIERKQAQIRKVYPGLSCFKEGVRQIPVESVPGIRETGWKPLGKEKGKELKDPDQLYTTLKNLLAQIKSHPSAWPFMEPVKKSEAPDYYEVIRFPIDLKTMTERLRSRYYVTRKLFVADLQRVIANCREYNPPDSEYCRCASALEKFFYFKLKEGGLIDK
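Free CoA generated was detected with ThioGlo1 (50uM) fluorescence at Ex340nm/Em540nm, read immediately and after 20 min at room temperature. Enzyme, 20 nM in HEPES pH 7.5 buffer, saw compounds 15 min before adding 75uM H3(1-25) peptide and 70uM acetyl-CoA.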
N370S GC mod – inhibitors or activators of N370S glucocerebrosidase for Gaucher disease; P04062; N370S GC spleen homogenate, 4MU-glucoside fluorescence; Potency, µM (top dose mostly 59.4 µM), without a hit: at the highest dose activity change, negative = inhibition, hits mostly inhibitors; 330,000 tested, 0.092% active; AID 2101;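 note: 0% = full enzyme activity and -100% = no enzyme basal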
An asterisk follows results filed as active; ? = inconclusive; . = no result given; & = joins results of further samples; [ ] = remark or other dose. Calls come from the whole dose curve; as a rule, active = well fitted curve in the direction sought with a large enough effect; inconclusive = small, poorly fitted or top-dose-only effect, or another doubt; inactive = no such curve, though single readings can be large; an effect the other way counts as inactive or inconclusive. Unless noted, % is set by controls: 0 for no effect and ±100 for the full control effect; potency is the fitted concentration of half-maximal effect. Some of the compounds tested; most or all hits stand in other tables.

SMILES	GCN5L2 inh	N370S GC mod
Cc1ccc(S(=O)(=O)N2CCN(CC(=O)Nc3ccnn3C3CCCC3)CC2)cc1	-1%	.
O=C(c1ccc(-c2ccc(Cl)cc2Cl)o1)N1CCOCC1	-13%	-10%
N#CC1=C(N)NC(SCC(=O)O)=C(C#N)C12CCCC2	-14%	-6%
COc1ccccc1N1CCN(C(=O)c2c(C)noc2C)CC1	-6%	3%
COc1ccc(N2CCN(Cc3nc(N)nc(Nc4ccc(C)c(Cl)c4)n3)CC2)cc1	-9%	?
COc1cc(OC)c(NS(=O)(=O)c2ccc3c(c2)NC(=O)CO3)cc1Cl	-8%	-13%
CCCCCN(C(=O)CCC(=O)OCc1cc(C)ccc1C)c1c(N)n(CCCC)c(=O)[nH]c1=O	3%	2%
COc1ccc(CCN2C(=O)CC(N3CCN(S(=O)(=O)c4ccccc4)CC3)C2=O)cc1 (stereo not drawn)	-5%	-1%
O=C(Nc1nnc(C2CC2)s1)c1cc(-c2ccccc2)nn1-c1ccccc1	3%	21%
Cc1ccc(C)c(N2CCN(C(=O)CCS(=O)(=O)c3cccc4nonc34)CC2)c1	-5%	5%
C/C(=N\O)C(=O)NCc1ccccn1	-6%	2%
CCOC(=O)C1CCN(C(=O)c2ccc(OC3CCN(C(=O)COC)CC3)cc2)CC1	-23%	2%
C=C(C)COc1ccc2c(C)c(C)c(=O)oc2c1OCC(=C)C	-2%	?
c1ccc2c(c1)nc(NCC1CCCO1)c1nnnn12 (stereo not drawn)	-3%	7%
COc1ccc(NC(=O)c2nc(C)n(-c3ccc([N+](=O)[O-])cc3)n2)cc1	-6%	1%

Next section, overlapping the part above by 4 compounds.
SMILES	GCN5L2 inh	N370S GC mod
CCOC(=O)C1CCN(C(=O)c2ccc(OC3CCN(C(=O)COC)CC3)cc2)CC1	-23%	2%
C=C(C)COc1ccc2c(C)c(C)c(=O)oc2c1OCC(=C)C	-2%	?
c1ccc2c(c1)nc(NCC1CCCO1)c1nnnn12 (stereo not drawn)	-3%	7%
COc1ccc(NC(=O)c2nc(C)n(-c3ccc([N+](=O)[O-])cc3)n2)cc1	-6%	1%
COc1cc(SC)ccc1C(=O)Nc1ccc2c(c1)CCN2S(C)(=O)=O	-10%	15%
COc1cc(NC(=O)c2ccc(NC3=NC4CS(=O)(=O)CC4S3)cc2)cc(OC)c1OC (stereo not drawn)	-1%	0%
CCn1nc(NC(=O)c2cccnc2)c2cc3ccccc3nc21	-2%	-5%
CC(C)C(c1nnnn1C1CCCC1)N1CCCc2ccccc21 (stereo not drawn)	-8%	3%
COc1ccc(/C(C)=N/N2C(=O)c3ccccc3NC2c2ccc(O)c(OC)c2)cc1 (stereo not drawn)	-9%	-8%
O=c1[nH]c(NCCO)nc2ncn(Cc3ccccc3)c12	-6%	6%
CCOC(=O)C1CCN(C(=O)Cc2c(F)cccc2Cl)CC1	-14%	2%
COc1cccc(CN(C)CC(=O)Nc2cc3oc4ccccc4c3cc2OC)c1	-4%	25%
O=C(COC(=O)Cc1cccs1)Nc1ccc(F)c(F)c1F	-3%	13%
COc1ccc(-n2nnnc2CNC(=O)C(=O)c2c[nH]c3ccccc23)cc1	-10%	-6%
O=C(CSc1n[nH]c(=O)[nH]c1=O)Nc1ccc(C(=O)O)cc1	-7%	1%
Cc1ccc2c(c1)c(N=NC(N)=O)c(O)n2C	-2%	-8%
COc1cccc(/C=C(\C#N)c2nc3ccccc3c(=O)[nH]2)c1OC	2%	.
CC(O)C1C(=O)OC2(C)CC(C)(C)NC(=S)N12 (stereo not drawn)	2%	-1%
Cc1nc2ccc(S(=O)(=O)N3CCCCC3)cc2s1	2%	-14%
CCN(CC)C(=O)c1ccc(C(=O)c2ccccc2)cc1	1%	3%
Cc1nnc(SCC(=O)NNC(=O)CC#N)[nH]c1=O	11%	6%
CCCCNC(=O)OCCNC(=O)Oc1cccc(C)c1	-1%	5%
CCOc1ccc(N2C(=O)Nc3ccccc3C2(O)C(=O)NCc2ccccc2)cc1 (stereo not drawn)	3%	-5%
COc1ccc(CC(C)N2CCN(Cc3ccccc3)CC2)c(OC)c1 (stereo not drawn)	-6%	-9%
N#C/C(=C/c1ccc(-c2ccccc2[N+](=O)[O-])o1)C(N)=O	-7%	4%
COc1ccccc1CNC(=O)C1CCN(c2ncnc3c2nc2n3CCCCC2)CC1	-5%&-5%	-4%
CC(C)(C)OC(=O)CNC(=O)c1[nH]cnc1C(=O)N[C@@H](CCCCN)C(=O)OC(C)(C)C	0%	.
CCCN(CC(=O)Nc1ccccc1C)C(=O)c1ccc(NC2CC2)c([N+](=O)[O-])c1	1%	-18%
COC(=O)C(Cc1c[nH]c2ccccc12)N1CCS(=O)(=O)CC1 (stereo not drawn)	-2%	7%
Cc1cc(C(F)(F)F)nc(SCC(=O)NC2CCCCC2)n1	1%	-2%
c1cncc(CSc2ccc(-c3ccc4c(c3)OCO4)nn2)c1	-5%	7%
O=C(COC(=O)CNC(=O)c1ccc(Cl)c([N+](=O)[O-])c1)NC(=O)c1ccccc1	-3%	-29%
CCOC(=O)C1CCCN(C(=O)CNC(=O)Cn2ccc3ccccc3c2=O)C1 (stereo not drawn)	-2%	1%
CCN1CCN(C(=O)c2cc(S(=O)(=O)Nc3ccc(S(C)(=O)=O)cc3)ccc2Cl)CC1	-5%	0%
CCCCCC(=O)Nc1ccc(C(=O)COC(=O)CN2C(=O)NC3(CCCC3)C2=O)cc1	-3%	-4%
O=C(NCCCCc1ccccc1)Nc1ccc(F)cc1F	-2%	-18%
Cc1cccc(Cn2c(=O)n(Cc3ccco3)c(=O)c3ccccc32)c1	-13%	15%
Fc1ccc2c(c1)C(c1ccncc1)=NNC(c1cccnc1)=N2	-15%	-2%
N#C/C(=C/c1ccccc1)C(=O)OCC(=O)Nc1ccccc1[N+](=O)[O-]	-2%	.
COc1ccc(N=C2S/C(=C\c3ccc(Cl)c([N+](=O)[O-])c3)C(=O)N2CCN(C)C)cc1	-3%	-28%
CC1CCCC(C)N1S(=O)(=O)c1ccc(NC(=O)c2ccccc2C(=O)N2CCOCC2)cc1 (stereo not drawn)	-3%	3%
Clc1cc(Cl)c2nc(N3CCCCC3)sc2c1	?	-9%
O=C(C1=C[C@@H](c2ccc3c(c2)OCO3)C[C@@H](OCCCCO)O1)N1CCOCC1	-1%	2%
Cc1ccc(NC(=O)/C(=C\c2cccnc2)NC(=O)c2ccccc2)cc1	-11%	-6%
CC(=O)N1CCN(c2ccc(NC(=O)c3cccc(Cl)c3Cl)cc2)CC1	-21%	-23%
COc1cc2c(C(=O)NCCCOC(C)C)cn(CC(C)C)c(=O)c2cc1OC	-4%	0%
CC(=O)NC(Cc1ccccc1)Cc1ccccc1	-2%	-1%
CC(C)(CO)C(O)C(=O)NCCC#N (stereo not drawn)	-7%	10%
CCN(CC(=O)NC1CCCC1)S(=O)(=O)c1ccc(F)cc1	1%	4%
C=CCOc1ccccc1OC[C@H](O)CNC(C)C	3%[21.4 µM]	4%[21.6 µM]
O=C(Cn1cc(C(F)(F)F)ccc1=O)N/N=C/c1ccccc1O	-3%	1%
O=C(Nc1ccc(Br)cc1)c1ccc(F)c(S(=O)(=O)N2CCCc3ccccc32)c1	-5%	.
COc1ccccc1NC(=O)c1oc2ccc(C)cc2c1C	-3%	0%
O=S(=O)(Nc1nc2ccccc2[nH]1)c1ccc(Cl)cc1	-5%	-20%
COc1ccc(Nc2nc(N)nc(CSc3nccc(C)n3)n2)cc1	-15%	-4%
O=S(=O)(c1ccc(S(=O)(=O)N(Cc2ccco2)Cc2ccccc2Cl)cc1)N1CCCC1	-6%	4%
CC(NC(=S)NCCCN1CCOCC1)C12CC3CC(CC(C3)C1)C2 (stereo not drawn)	-1%	-12%
O=C(CC(Cc1ccccc1)C(=O)O)Nc1ccccc1 (stereo not drawn)	?	2%
CCCS(=O)(=O)N1CCC(C(=O)NCCc2ccccc2)CC1	3%	0%
O=C(c1ccco1)N1CCN(C2CC(=O)N(c3ccc(F)c(Cl)c3)C2=O)CC1 (stereo not drawn)	-5%	3%
CCSc1nnc(NC(=O)C2CCCN(S(=O)(=O)c3cnc[nH]3)C2)s1 (stereo not drawn)	-1%	7%
COC(=O)CCCCC(=O)C1C(=O)CC(C)(C)C(C(=O)OC)C1=O (stereo not drawn)	-10%	2%
O=C1C(Cl)=C(N2CCOCC2)C(=O)N1c1cccc(C(F)(F)F)c1	-7%	-5%
C=CCn1c(SCC(=O)c2cc(C)n(C)c2C)nnc1-c1ccncc1	-16%	0%
Following part.
SMILES	GCN5L2 inh	N370S GC mod
Cc1nonc1C1CCCN1C(=O)c1cc(COc2ccc(F)cc2Cl)on1 (stereo not drawn)	-23%	13%
CCN1C(=O)/C(=C2/Sc3ccccc3N2CCCS(=O)(=O)O)SC1=S	-3%&-4%	5%&6%
O=C(NCc1ccccn1)c1cccc(S(=O)(=O)Nc2ccc(F)cc2)c1	-6%	-6%
COC(=O)CN1C(=O)CSc2ccc(S(=O)(=O)Nc3ccc(Cl)cc3C)cc21	-7%	.
CCc1cccc(NC(=O)C(NS(=O)(=O)c2ccc3nc(C)sc3c2)C(C)C)c1 (stereo not drawn)	-5%	.
COC(=O)c1ccc(N2C(=O)CC(Sc3n[nH]c(C)n3)C2=O)cc1 (stereo not drawn)	-16%	1%
Cc1csc(Sc2ccc([N+](=O)[O-])cc2C(=O)OCC(=O)NC(=O)NC(C)(C)C)n1	1%	.
O=C(NCc1cccs1)C1CCC(CNS(=O)(=O)c2ccccc2)CC1 (stereo not drawn)	2%	-4%
O=C(Nc1ccccn1)C(NS(=O)(=O)c1cccc2nsnc12)c1ccccc1 (stereo not drawn)	-25%	4%
Cc1cc(C)c(NC(=O)NC(=O)c2ccc(F)cc2)c(C)n1	4%	21%
OCc1cc(-c2ccccn2)no1	-8%	-4%
Clc1cccc(Nc2nc(-c3ccncc3)cs2)c1	-6%	1%
O=C(NC1=NCCS1)C1CC(=O)N(c2ccc(Cl)cc2)C1 (stereo not drawn)	-6%	9%
CC(=O)c1cccc(NC(=O)CCCCCn2nnc3ccccc3c2=O)c1	-2%	-7%
CCONC(=NC)c1nonc1N	-4%	0%
COc1ccc(C2=CC(c3cc(OC)c(OC)c(OC)c3)NC(=S)N2)cc1 (stereo not drawn)	-2%	-2%
CC(C)c1ccc(S(=O)(=O)N2CCN(C(=O)C3CCCCC3)CC2)cc1	-5%	-12%
COc1ccc(NC(=O)C2=CC(c3ccc(OC)c(OC)c3)=NS(=O)(=O)N2C)cc1	?	-23%
CNC(=S)NCc1ccc2[nH]c(C)cc2c1	-1%	9%
O=C(NCc1ccccc1F)C1CCCN(c2cnccn2)C1 (stereo not drawn)	?	-5%
CCOc1cc(-c2c(C#N)c(N)nc3c2CCCC3C)ccc1O (stereo not drawn)	-4%	-7%
CCOC(=O)Cn1nc(NC(=O)COc2ccc(F)cc2)cc1C	-3%	0%
Cc1ccccc1NC(=O)C1CCN(S(=O)(=O)c2cccs2)CC1	-2%	11%
CC1CCCCN1C(=O)C1CC(c2ccc(F)cc2)=NO1 (stereo not drawn)	-8%	4%
COc1ccc(C2CC(c3ccccc3)=NN2C(=O)CN2N=NC3C(=O)N(c4cccc(F)c4)C(=O)C32)cc1 (stereo not drawn)	-2%	-10%
CCOc1cc(-c2cc(C(=O)O)c3c(-c4ccccc4)[nH]nc3n2)ccc1O	-13%	.
COC(=O)c1cc(-c2cccs2)nc2ccccc12	-27%	4%
COc1ccc(-c2cn3c(C)c(C(=O)NC(C)(C)C)sc3n2)cc1	4%	2%
Cc1ccc(-c2nnn(CC(=O)N(CCO)C(C(=O)NC(C)(C)C)c3ccncc3)n2)cc1 (stereo not drawn)	-7%	-23%
O=C(COc1ccc(Cl)cc1)Nc1cc(NC(=O)COc2ccc(Cl)cc2)cc(C(=O)O)c1	-24%	0%
Cc1cc(NC(=O)COc2ccc(N(C)S(=O)(=O)c3ccccc3)cc2)no1	-7%	8%
COc1nnc(-c2ccc(N3CCCCC3)c(NC(C)=O)c2)c2ccccc12	-3%	.
Cc1ccc(NC(=O)CN(C)CC(=O)Nc2c(C)cccc2C)c(Br)c1	?	6%
CCOc1ccc(C(C)NC(=O)Nc2ccccc2C(=O)OC)cc1 (stereo not drawn)	-3%	3%
COC(=O)c1ccccc1NC(=O)C1CCCCC1C(=O)O (stereo not drawn)	-2%	10%
CC(C)CC(=O)NNC(=S)NCc1ccco1	-2%	11%

Gathered by group: the compounds so far with a nitro group on carbon
SMILES	GCN5L2 inh	N370S GC mod
COc1ccc(NC(=O)c2nc(C)n(-c3ccc([N+](=O)[O-])cc3)n2)cc1	-6%	1%
N#C/C(=C/c1ccc(-c2ccccc2[N+](=O)[O-])o1)C(N)=O	-7%	4%
CCCN(CC(=O)Nc1ccccc1C)C(=O)c1ccc(NC2CC2)c([N+](=O)[O-])c1	1%	-18%
O=C(COC(=O)CNC(=O)c1ccc(Cl)c([N+](=O)[O-])c1)NC(=O)c1ccccc1	-3%	-29%
N#C/C(=C/c1ccccc1)C(=O)OCC(=O)Nc1ccccc1[N+](=O)[O-]	-2%	.
COc1ccc(N=C2S/C(=C\c3ccc(Cl)c([N+](=O)[O-])c3)C(=O)N2CCN(C)C)cc1	-3%	-28%
Cc1csc(Sc2ccc([N+](=O)[O-])cc2C(=O)OCC(=O)NC(=O)NC(C)(C)C)n1	1%	.
